Cruzain noTriton: blocks cruzain activity in detergent-free assay | AID 1476 | Potency, µM, for inactives: max response, negative = inhibition, hits mostly inhibitors | hit rate 2.3% among 200,000 | purified cruzain, Z-FR-AMC fluorescence, no detergent; active means well fitted curve in the direction sought with a large enough effect; inconclusive means small, poorly fitted or top-dose-only effect, or another doubt; inactive means no such curve, though single readings can be large; an effect the other way counts as inactive or inconclusive;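 further: plate controls were enzyme without inhibitor for no effect and buffer without enzyme for full effect; nearly all actives have a fitted effect of over 40% in size; top concentration of the series not given in the record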
Target sequence (P25779 123-467 limits assumed): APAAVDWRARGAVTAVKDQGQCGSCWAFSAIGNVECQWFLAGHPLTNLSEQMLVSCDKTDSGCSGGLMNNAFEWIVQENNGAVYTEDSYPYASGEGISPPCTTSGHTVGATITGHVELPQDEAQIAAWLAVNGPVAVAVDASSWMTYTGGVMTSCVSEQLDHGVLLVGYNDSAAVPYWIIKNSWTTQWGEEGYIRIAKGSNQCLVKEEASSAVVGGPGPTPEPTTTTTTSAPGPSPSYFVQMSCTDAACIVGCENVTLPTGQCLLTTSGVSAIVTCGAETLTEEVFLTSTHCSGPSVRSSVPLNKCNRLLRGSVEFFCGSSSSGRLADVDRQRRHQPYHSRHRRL
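Purified cruzain at 1.5 nM, pre-incubated 15 min with compound at room temperature in 100 mM sodium acetate pH 5.5, 5 mM DTT, 0.00005% Triton X-100. Reaction started with 2 uM Z-FR-AMC; AMC fluorescence increase over 60 s gives rate.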
NS1 function inh: influenza NS1 inhibition. AID 2326. Potency, µM (top dose mostly 46.1 µM), inactives show top-dose activity, positive = more growth. hit rate 0.4% among 270,000. S. cerevisiae slowed by influenza A NS1, growth recovery by OD600; further: actives are rising curves; nearly all actives have a fitted effect of over 50% in size
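OD600 was taken as the measure of yeast growth restored by compound in an NS1-expressing S. cerevisiae strain. Cells had been washed out of glucose medium and diluted 1:100 into galactose -URA medium, pH 6.0.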
2A StopGo: lowers the luciferase signal of an FMDV 2A StopGo reporter. human cells with a luciferase reporter of 2A StopGo recoding; control for the full effect not named in the record. Potency, µM (top dose mostly 57.9 µM), for inactives: at the top dose signal change, negative = less light. hit rate 1.2% among 410,000. AID 1159524; active = well fitted falling curve with a large enough effect; inconclusive = small, poorly fitted or top-dose-only effect; inactive = no such curve, though single readings can be large or run the other way; tested in HEK293T cells; further: on the % scale 0 is the no-effect control and ±100 the full control effect; nearly all actives have a fitted effect of over 45% in size; luciferase light after 4 h
SARS PLpro yeast: SARS-CoV PLP inhibition in yeast; AID 485353; Potency, µM (top dose mostly 32.9 µM), for the others: top-dose activity, positive = growth rescue; S. cerevisiae expressing SARS-CoV PLpro, growth rescue; control for the full effect not named in the record; hit rate 0.19% among 330,000; further: 0% is about no effect; nearly all actives have a fitted effect of over 55% in size; growth read by luminescence after 48 h
Cruzain Triton: inhibitors of Trypanosoma cruzi cruzain with detergent; purified cruzain, Z-FR-AMC fluorescence, 0.01% Triton; P25779; AID 1478; Potency, µM, inactives show max response, negative = inhibition, hits mostly inhibitors; hit rate 0.43% among 200,000; active means well fitted curve in the direction sought with a large enough effect; inconclusive means small, poorly fitted or top-dose-only effect, or another doubt; inactive means no such curve, though single readings can be large; an effect the other way counts as inactive or inconclusive;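 further: plate controls were neutral wells for no effect and buffer without enzyme for full effect; nearly all actives have a fitted effect of over 40% in size; top concentration of the series not given in the record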
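Sodium acetate buffer (100 mM, pH 5.5) containing 5 mM DTT and 0.01% Triton X-100 hosted 1.5 nM cruzain and test compound for 15 min at room temperature. Cleavage of 2 uM Z-FR-AMC was then tracked by fluorescence.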
Lassa entry inh: blocks Lassa virus binding to or entry into cells | AID 540256 | Potency, µM (doses to about 37.9 µM), for the others: at the highest dose activity change, negative = inhibition, most hits filed as inhibitors | Lassa virus pseudotype entry inhibition, cell reporter; control for the full effect not named in the record | hit rate 1.2% among 300,000; active means well fitted inhibition curve with a large enough effect; inconclusive means small, poorly fitted or top-dose-only effect, or effect the other way; inactive means flat fitted curve, though single readings scatter; tested in HEK293 cells; further: on the % scale 0 is the no-effect control and ±100 the full control effect; nearly all actives have a fitted effect of over 50% in size; luciferase read-out
RE007 growth inh: less growth of the S. pombe RE007 Vpr strain. S. pombe RE007 Vpr strain, BacTiter-Glo ATP luminescence, 24 h; control for the full effect not named in the record. AID 651644. Potency, µM (highest dose often 92.2 µM), without a hit: at the top dose activity change, negative = less growth. hit rate 0.21% among 360,000; active = well fitted falling curve with a large enough effect; inconclusive = small, poorly fitted or top-dose-only effect; inactive = no such curve, though single readings can be large or run the other way;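 further: on the % scale 0 is the no-effect control and ±100 the full control effect; nearly all actives have a fitted effect of over 50% in size; the assay follows cell death caused by Vpr and the record does not say whether a fall means rescue or toxicity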
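Fission yeast strain RE007, carrying one chromosomally integrated HIV-1 vpr copy, was seeded at OD 0.01 in PMG+AL medium with 23 nL pinned compound. After 24 h at 30 °C and 99% humidity, viability was read by BacTiter-Glo luminescence.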
Marburg entry inh: inhibitors of Marburg virus binding or cell entry; Marburg virus pseudotyped entry inhibition, cell reporter; control for the full effect not named in the record; about a third of the inactives were read at about 46 µM; Potency, µM (top dose mostly 37.8 µM), for the others: at the highest dose activity change, negative = inhibition, most hits filed as inhibitors; hit rate 1.8% among 300,000; AID 540276; active = well fitted inhibition curve with a large enough effect; inconclusive = small, poorly fitted or top-dose-only effect, or effect the other way; inactive = flat fitted curve, though single readings scatter; tested in HEK293 cells; about a fifth of its hits are not listed in these tables; further: on the % scale 0 is the no-effect control and ±100 the full control effect; luciferase read-out
An asterisk follows results filed as active; [ ] = remark or other dose. Unless noted, the call rests on the fitted dose curve; in most records, active means well fitted rising curve with a large enough effect; inconclusive means small, poorly fitted or top-dose-only effect; inactive means no such curve, though single readings can be large or run the other way. Potency means the concentration at half of the fitted maximal effect.

`O=C(O)c1cccc2cccc(-c3c4ccc(=O)c(O)c-4oc4c(O)c(O)ccc34)c12` gave 2A StopGo inconclusive, Lassa entry inh -0.7%, RE007 growth inh 9.6% and Marburg entry inh inconclusive.
`CCOC(=O)N1CCN(Cc2nc(CC3CC3)no2)CC1` gave NS1 function inh -5.2%, 2A StopGo 13.3%, SARS PLpro yeast 0.6%, Lassa entry inh 15.9%[46.1 µM], RE007 growth inh -12.8% and Marburg entry inh inconclusive.
`COc1ccc(NC(=O)CSc2nncn3c2cc2oc(C)cc23)cc1OC` gave Cruzain noTriton 9.6%, 2A StopGo -25.9%, Cruzain Triton -10.8% and Lassa entry inh 6.5%[46.1 µM].
Screening COC(=O)CCN1CCc2cc(N=Nc3ccc([N+](=O)[O-])cc3)ccc21 returned NS1 function inh 2.7%, 2A StopGo 5.0%, SARS PLpro yeast 1.7%, Lassa entry inh 22.3%, RE007 growth inh 5.1% and Marburg entry inh inconclusive.
Cc1c(C(=O)NCCc2ccccc2)oc2ccccc12 was read as NS1 function inh -33.1%, 2A StopGo 16.9%, SARS PLpro yeast -2.2%, Lassa entry inh inconclusive, RE007 growth inh -18.7% and Marburg entry inh 6.31µM*.
For CN(c1ccc(C(=O)NCCSCc2ccco2)cc1)S(C)(=O)=O the results were Cruzain noTriton 3.8%, NS1 function inh 9.1%, 2A StopGo -14.9%, SARS PLpro yeast 9.3%, Cruzain Triton 2.6%, Lassa entry inh -4.4%, RE007 growth inh 7.3% and Marburg entry inh 2.6%.
Screening COc1cc2nc(NC(=O)c3ccc(F)cc3Cl)sc(=O)c2cc1OC returned NS1 function inh 1.6%, 2A StopGo inconclusive, SARS PLpro yeast 0.3% and RE007 growth inh 10.9%.
`COc1ccc(C(=O)CSc2nccn2C)cc1` gave NS1 function inh -10.5%, 2A StopGo 11.2%, SARS PLpro yeast -10.3%, Lassa entry inh inconclusive, RE007 growth inh -8.5% and Marburg entry inh 2.2%[46.1 µM].
For NNC(=O)c1ccc2nc(-c3ccc(Br)cc3)cn2c1 the results were 2A StopGo 28.1%, SARS PLpro yeast -14.2%, Lassa entry inh inconclusive, RE007 growth inh 6.0% and Marburg entry inh inconclusive.
CN(C)c1ncc(S(=O)(=O)c2ccccc2)c(-c2ccccc2Cl)n1 was read as Cruzain noTriton 3.8%, NS1 function inh -1.6%, 2A StopGo 0.0%, SARS PLpro yeast -5.1%, Cruzain Triton -0.3%, Lassa entry inh -4.8%, RE007 growth inh -13.2% and Marburg entry inh -7.6%.
Screening O=S(=O)(Nc1nc2ccccc2s1)c1ccc(Br)s1 returned Cruzain noTriton -25.1%, NS1 function inh -32.8%, SARS PLpro yeast -2.9%, Cruzain Triton -5.2%, Lassa entry inh 5.1%, RE007 growth inh 15.5% and Marburg entry inh -18.0%.
Screening COc1ccc2c(c1)c1nnc(SCC(=O)NC3CC3)nc1n2C returned NS1 function inh 1.4%, 2A StopGo -8.9%, SARS PLpro yeast 4.6%, Lassa entry inh inconclusive, RE007 growth inh -7.0% and Marburg entry inh 24.1%[46.1 µM].
For OC(CN1CCC(c2c[nH]c3ccccc23)CC1)C(F)(F)F (stereo unspecified) the results were NS1 function inh 6.1%, 2A StopGo -7.8%, SARS PLpro yeast 0.7% and RE007 growth inh -4.3%.
Screening CCOc1ccc(-c2nc(CN(Cc3ccccc3)C[C@@H]3CCC(=O)N3)c(C)o2)cc1 returned NS1 function inh 0.3%, 2A StopGo -15.8%, SARS PLpro yeast -1.0%, Lassa entry inh inconclusive, RE007 growth inh -9.6% and Marburg entry inh inconclusive.
CC(C)(C)NC(=O)C(=O)NN=C1CCCCCCC1 was read as 2A StopGo 8.9%, SARS PLpro yeast 2.5%, Lassa entry inh 8.0%[46.1 µM], RE007 growth inh -4.3% and Marburg entry inh 11.8%[46.1 µM].
Cc1ccc(S(=O)(=O)NN=C2CCC(C(C)(C)C)CC2)cc1[N+](=O)[O-] (stereo unspecified) was read as Cruzain noTriton 12.5%, NS1 function inh -2.8%, 2A StopGo -13.0%, SARS PLpro yeast -0.1%, Cruzain Triton -4.1%, Lassa entry inh 0.5%, RE007 growth inh -4.7% and Marburg entry inh -12.9%.
CC(=O)Nc1cccc(NC(=O)C(F)(F)F)c1 was read as NS1 function inh 4.4%, 2A StopGo 14.3%, SARS PLpro yeast 1.5%, Lassa entry inh 9.8%[46.1 µM], RE007 growth inh 6.5% and Marburg entry inh 25.8%[46.1 µM].
For O=C1CC(N2CCN(c3ccc(F)cc3)CC2)C(=O)N1Cc1ccccc1 (stereo unspecified) the results were NS1 function inh -15.2%, 2A StopGo -9.7%, SARS PLpro yeast -9.8%, Lassa entry inh 0.4%[46.1 µM], RE007 growth inh -27.3% and Marburg entry inh inconclusive.
`COc1cc(CNc2ccc(O)cc2)cc(Br)c1OCc1ccccc1` gave NS1 function inh 0.2%, 2A StopGo -14.0%, SARS PLpro yeast -4.4% and RE007 growth inh -3.1%.
`CCn1c(=NC(=O)c2ccc(N3C(=O)CCC3=O)cc2)sc2c(OC)ccc(OC)c21` gave Cruzain noTriton inconclusive, NS1 function inh 13.5%, 2A StopGo inconclusive, SARS PLpro yeast -1.7%, Cruzain Triton -10.2%, RE007 growth inh -8.2% and Marburg entry inh 4.3%.
Screening COc1ccc(NC(=O)CSc2nnc(-c3ccccc3C)n2N)cc1 returned Cruzain noTriton 0.3%, NS1 function inh -1.7%, 2A StopGo 8.5%, SARS PLpro yeast -10.3%, Cruzain Triton 5.1%, Lassa entry inh 4.9%, RE007 growth inh -8.9% and Marburg entry inh 2.6%.
`CC(=O)Nc1ccc(NC(=O)C(C)Sc2nc3ccccc3c(=O)n2Cc2ccco2)cc1` (stereo unspecified) gave 2A StopGo 8.4%, SARS PLpro yeast 5.8%, Lassa entry inh -2.5%[46.1 µM], RE007 growth inh -8.4% and Marburg entry inh 12.4%.
CCOC(=O)NN1C(=O)c2ccccc2NC1c1ccccc1O (stereo unspecified) was read as Cruzain noTriton -3.8%, NS1 function inh 2.3%, 2A StopGo -7.3%, SARS PLpro yeast -17.4%, Cruzain Triton 0.6%, Lassa entry inh 5.0%, RE007 growth inh 11.2% and Marburg entry inh 5.7%.
For O=C(NCc1ccccn1)C1CCCN(S(=O)(=O)c2cc(Cl)ccc2Cl)C1 (stereo unspecified) the results were 2A StopGo 26.4%, Lassa entry inh 0.3%, RE007 growth inh -12.5% and Marburg entry inh 7.4%[46.1 µM].
C#CCOc1ccc(/C=C2/C(=O)ON=C2C)cc1Cl was read as NS1 function inh 11.8%, 2A StopGo -19.0%, SARS PLpro yeast 0.6%, Lassa entry inh 20.7%[46.1 µM], RE007 growth inh -8.0% and Marburg entry inh 2.3%[46.1 µM].
Screening O=C(Nc1cccc(C(F)(F)F)c1)c1cnccn1 returned NS1 function inh -7.3%, 2A StopGo 16.6%, SARS PLpro yeast -1.9%, Lassa entry inh 0.7%, RE007 growth inh 0.6% and Marburg entry inh -6.8%[46.1 µM].
For COc1ccc(-c2csc(N3CCN(C(=O)c4ccccc4)CC3)n2)cc1 the results were Cruzain noTriton 16.3%, NS1 function inh 24.8%, 2A StopGo inconclusive, SARS PLpro yeast 18.1%, Cruzain Triton -16.9%, Lassa entry inh -13.0%, RE007 growth inh -20.5% and Marburg entry inh inconclusive.
Screening CC(C(=O)Nc1ccc(S(N)(=O)=O)cc1)N1CCc2ccccc21 (stereo unspecified) returned 2A StopGo -15.6%, SARS PLpro yeast -0.2%, Lassa entry inh -22.3%, RE007 growth inh 13.4% and Marburg entry inh -9.5%[46.1 µM].
For O=c1oc(-c2cccc(Cl)c2)nc2c1cnn2-c1ccccc1 the results were Cruzain noTriton inconclusive, NS1 function inh -2.5%, SARS PLpro yeast -0.7%, Cruzain Triton 1.2%, Lassa entry inh inconclusive, RE007 growth inh 2.9% and Marburg entry inh 2.4%.
`Cc1cc(C)c(S(=O)(=O)c2ccccc2)c(=O)[nH]1` gave NS1 function inh 3.4%, 2A StopGo 8.4%, SARS PLpro yeast 2.4%, Lassa entry inh 17.1%[46.1 µM], RE007 growth inh 17.3% and Marburg entry inh 6.1%[46.1 µM].
`CC1(C(=O)NC2CCCC2)CCC(=O)N1Cc1cccs1` (stereo unspecified) gave Cruzain noTriton 0.8%, NS1 function inh 6.8%, 2A StopGo -22.2%, SARS PLpro yeast 8.3%, Cruzain Triton 6.0%, Lassa entry inh 4.5%, RE007 growth inh 2.0% and Marburg entry inh -4.2%.
`O=C(Nc1ccc(NC(=O)C2CC2)nc1)c1ccncc1` gave Cruzain noTriton -6.5%, NS1 function inh 4.5%, 2A StopGo -13.3%, SARS PLpro yeast 4.7%, Cruzain Triton -3.3%, Lassa entry inh 12.0%, RE007 growth inh 3.7% and Marburg entry inh -5.0%.
CCOC(=O)NNc1ccccc1 was read as NS1 function inh -11.0%, 2A StopGo -6.5%, SARS PLpro yeast -2.2%, Lassa entry inh -0.3%, RE007 growth inh 232.1% and Marburg entry inh inconclusive.
For Cc1ccc(S(=O)(=O)N(CC(=O)Nc2cccc([N+](=O)[O-])c2)Cc2ccc(Cl)cc2)cc1 the results were Cruzain noTriton -16.9%, NS1 function inh 7.6%, 2A StopGo -28.4%, SARS PLpro yeast 12.6%, Cruzain Triton -4.0%, Lassa entry inh -10.6%, RE007 growth inh 4.4% and Marburg entry inh -21.4%.
`Cc1ccc(CNc2ncnc3cc(Cl)ccc23)o1` gave Cruzain noTriton 4.4%, NS1 function inh -89.2%, 2A StopGo inconclusive, SARS PLpro yeast -3.2%, Cruzain Triton -10.6%, Lassa entry inh 0.4%, RE007 growth inh -8.8% and Marburg entry inh -7.2%.
For CC(C)C(=O)N1CCN(c2ccccc2NC(=O)COc2ccc(C3CCCCC3)cc2)CC1 the results were NS1 function inh 26.7%, 2A StopGo inconclusive, SARS PLpro yeast -7.7%, Lassa entry inh -12.0%, RE007 growth inh 0.1% and Marburg entry inh 7.94µM*.
`CC1(c2ccccc2)CC(C)(C)N(C(N)=O)c2ccccc21` (stereo unspecified) gave NS1 function inh 4.5%, 2A StopGo -25.0%, SARS PLpro yeast 0.6% and RE007 growth inh -8.4%.
Screening CCOC(=O)C1CCN(c2ncnc3c2c(-c2ccccc2)cn3-c2ccc(Cl)cc2)CC1 returned Cruzain noTriton -19.1%, 2A StopGo -13.1%, Cruzain Triton 0.4% and Lassa entry inh 3.6%[46.1 µM].
For c1ccc2c(CN3CCCCC3)csc2c1 the results were Cruzain noTriton -9.6%, NS1 function inh 4.1%, 2A StopGo -21.0%, SARS PLpro yeast -12.5%, Cruzain Triton -0.1%, Lassa entry inh -4.4%, RE007 growth inh -3.6% and Marburg entry inh inconclusive.

The order is random. Share with any hit: about 4.7%.
